Marburg entry inh = Marburg virus entry inhibition | Marburg virus pseudotyped entry inhibition, cell reporter; control for the full effect not named in the record; about a third of the inactives were read at about 46 µM | Potency, µM (series often up to 37.8 µM), for the others: at the top dose activity change, negative = inhibition, most hits filed as inhibitors | 1.8% of 300,000 active | AID 540276; active = well fitted inhibition curve with a large enough effect; inconclusive = small, poorly fitted or top-dose-only effect, or effect the other way; inactive = flat fitted curve, though single readings scatter; tested in HEK293 cells; about a fifth of its hits are not listed in these tables; further: on the % scale 0 is the no-effect control and ±100 the full control effect; luciferase read-out
StopGo reporter = FMDV 2A StopGo reporter, luciferase signal | human cells with a luciferase reporter of 2A StopGo recoding; control for the full effect not named in the record | Potency, µM (highest dose often 57.9 µM), inactives show top-dose signal change, negative = less light | 1.2% of 410,000 active | AID 1159524; active = well fitted falling curve with a large enough effect; inconclusive = small, poorly fitted or top-dose-only effect; inactive = no such curve, though single readings can be large or run the other way; tested in HEK293T cells; further: on the % scale 0 is the no-effect control and ±100 the full control effect; nearly all actives have a fitted effect of over 45% in size; luciferase light after 4 h
SARS PLpro yeast = blocks SARS-CoV papain-like protease in a yeast assay | AID 485353 | S. cerevisiae expressing SARS-CoV PLpro, growth rescue; control for the full effect not named in the record | 0.19% of 330,000 active | Potency, µM (top dose mostly 32.9 µM), inactives show at the top dose activity, positive = growth rescue; active means well fitted rising curve with a large enough effect; inconclusive means small, poorly fitted or top-dose-only effect; inactive means no such curve, though single readings can be large or run the other way; further: 0% is about no effect; nearly all actives have a fitted effect of over 55% in size; growth read by luminescence after 48 h
LASV entry inh = Lassa virus entry inhibition; Lassa virus pseudotype entry inhibition, cell reporter; control for the full effect not named in the record; Potency, µM (titrated, usually from 37.9 µM), for the others: at the highest dose activity change, negative = inhibition, actives largely listed as inhibitors; 1.2% of 300,000 active; AID 540256; active means well fitted inhibition curve with a large enough effect; inconclusive means small, poorly fitted or top-dose-only effect, or effect the other way; inactive means flat fitted curve, though single readings scatter; tested in HEK293 cells; further: on the % scale 0 is the no-effect control and ±100 the full control effect; nearly all actives have a fitted effect of over 50% in size; luciferase read-out
Cruzain Triton = cruzain (T. cruzi) inhibition with detergent. 0.43% of 200,000 active. AID 1478. purified cruzain, Z-FR-AMC fluorescence, 0.01% Triton. P25779. Potency, µM, for inactives: max response, negative = inhibition, most hits filed as inhibitors;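 further: plate controls were neutral wells for no effect and buffer without enzyme for full effect; nearly all actives have a fitted effect of over 40% in size; top concentration of the series not given in the record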
Target sequence (P25779 123-467 limits assumed): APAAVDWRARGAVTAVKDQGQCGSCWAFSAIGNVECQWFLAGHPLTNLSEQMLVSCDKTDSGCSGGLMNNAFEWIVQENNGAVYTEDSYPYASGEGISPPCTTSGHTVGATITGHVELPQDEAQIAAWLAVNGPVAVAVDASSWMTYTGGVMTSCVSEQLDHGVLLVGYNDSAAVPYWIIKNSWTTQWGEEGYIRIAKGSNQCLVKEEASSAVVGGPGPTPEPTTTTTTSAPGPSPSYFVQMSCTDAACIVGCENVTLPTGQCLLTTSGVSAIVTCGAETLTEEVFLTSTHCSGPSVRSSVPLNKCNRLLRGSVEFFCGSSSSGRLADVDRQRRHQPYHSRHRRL
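Z-FR-AMC hydrolysis (2 uM substrate) by cruzain (1.5 nM) monitored kinetically at ex 360/em 450 nm after 15 min room-temperature compound exposure; 0.01% Triton X-100, pH 5.5, 5 mM DTT.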
RE007 growth inh = less growth of the S. pombe RE007 Vpr strain; Potency, µM (highest dose often 92.2 µM), for the others: at the highest dose activity change, negative = less growth; S. pombe RE007 Vpr strain, BacTiter-Glo ATP luminescence, 24 h; control for the full effect not named in the record; 0.21% of 360,000 active; active = well fitted falling curve with a large enough effect; inconclusive = small, poorly fitted or top-dose-only effect; inactive = no such curve, though single readings can be large or run the other way;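 further: on the % scale 0 is the no-effect control and ±100 the full control effect; nearly all actives have a fitted effect of over 50% in size; the assay follows cell death caused by Vpr and the record does not say whether a fall means rescue or toxicity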
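Fission yeast RE007 carrying one integrated HIV-1 vpr copy, seeded at OD 0.01 in PMG+AL medium with 23 nL pinned compound. Grown 24 h at 30 degrees; viability read by BacTiter-Glo luminescence after 5 min.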
NS1 inh = influenza NS1 inhibition; S. cerevisiae slowed by influenza A NS1, growth recovery by OD600; Potency, µM (highest dose often 46.1 µM), for the others: top-dose activity, positive = more growth; 0.4% of 270,000 active; AID 2326; active means well fitted rising curve with a large enough effect; inconclusive means small, poorly fitted or top-dose-only effect; inactive means no such curve, though single readings can be large or run the other way; further: nearly all actives have a fitted effect of over 50% in size
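S. cerevisiae expressing influenza A NS1, grown in glucose, washed, then diluted 1:100 into pH 6.0 -URA galactose medium with 23 nl compound. Growth recovery read as OD600; NS1-free strain serves as control.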
Cruzain noTriton = cruzain (T. cruzi) inhibition without detergent. 2.3% of 200,000 active. purified cruzain, Z-FR-AMC fluorescence, no detergent. Potency, µM, inactives show max response, negative = inhibition, most hits filed as inhibitors. P25779;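 further: plate controls were enzyme without inhibitor for no effect and buffer without enzyme for full effect; nearly all actives have a fitted effect of over 40% in size; top concentration of the series not given in the record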
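Purified cruzain at 1.5 nM, pre-incubated 15 min with compound at room temperature in 100 mM sodium acetate pH 5.5, 5 mM DTT, 0.00005% Triton X-100. Reaction started with 2 uM Z-FR-AMC; AMC fluorescence increase over 60 s gives rate.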
* hit, by the source's call; ? = inconclusive; . = not tested or not shown; & = joins results of further samples; [ ] = remark or other dose. Unless noted, the call rests on the fitted dose curve; in most records, active means well fitted curve in the direction sought with a large enough effect; inconclusive means small, poorly fitted or top-dose-only effect, or another doubt; inactive means no such curve, though single readings can be large; an effect the other way counts as inactive or inconclusive. Potency means the concentration at half of the fitted maximal effect. No enrichment for hits; about 4.7% have a hit in one of these screens.

Every second line gives: NS1 inh, LASV entry inh, RE007 growth inh, Cruzain noTriton, SARS PLpro yeast, Marburg entry inh, Cruzain Triton, StopGo reporter
COCc1cc(C)nc2sc3c(c12)NC(c1ccccc1C(=O)O)N(c1ccc(OC)cc1)C3=O (centres undefined)
→ ., 24%[46.1 µM], ., 6%, ., -7%[46.1 µM], -5.8%, 10%
c1ccc(-c2nn3c(Cn4cnc5ccccc54)nnc3s2)cc1
→ -25%, 2%, -10%, -4%, 7%, -1%, 1.1%, -24%
Nc1ncnc(Oc2cccc(C(F)(F)F)c2)c1[N+](=O)[O-]
→ ., -20%, 2%, ., -5%, -8%, ., ?
CC(C)c1cccc(O)c(=O)c1
→ -45%, ., -18%, -6%, ?, ., -0.7%, -12%[146 µM]
COc1cc(C2C(C(=O)Nc3ccccc3C)=C(C)Nc3ncnn32)ccc1OCC(N)=O (centres undefined)
→ ., -3%[46.1 µM], ., -2%, ., ., -1.7%, -4%
CCCCOC(=O)CCc1c(C)[nH]c(=O)c(C#N)c1C
→ 2%, 22%, 15%, 2%, 2%, ?, 1.9%, -15%
CCCCCCn1c(CN2CCCCC2C)nc2c1c(=O)n(C)c(=O)n2C (centres undefined)
→ -4%, -22%, 2%, 2%, -26%, ?, -3.1%, .
Cc1c(C(=O)O)[nH]c2ccc([N+](=O)[O-])cc12
→ ., -15%, -4%, ., -1%, ?, ., 14%
Cc1ccc(S(=O)(=O)NCC(=O)N2CCOCCOCCOCCOCC2)cc1
→ 0%, 21%[46.1 µM], -13%, ., -1%, 12%[46.1 µM], ., 3%
CN(Cc1ccccc1)c1ncc(C=O)s1
→ -5%, -21%[46.1 µM], 8%, ., 0%, ?, ., -7%
N#Cc1cccc(NC(=O)CNC(=O)Cc2ccccc2)c1
→ 6%, -17%, 20%, ., 4%, 9%[46.1 µM], ., -10%
Cc1ccccc1Cn1c(=O)[nH]c2ccccc21
→ 0%, ., 18%, ., 0%, ., ., -4%
O=C(NCCCO)c1cc2c([nH]c3ccccc32)c(-c2ccccc2)n1
→ -2%, 0%[46.1 µM], -2%, ., 0%, ?, ., -29%
Cc1cc(NC(=O)CCC(=O)N(Cc2cccs2)C(C(=O)NC2CCCC2)c2cccnc2)no1 (centres undefined)
→ -6%, 6%, 2%, -2%, 3%, 6%, 7.4%, -9%
CCOc1ccc(S(=O)(=O)Nc2cccc(Cl)c2)cc1
→ -36%, 1%, -6%, ., ., -8%, ., .
Cn1c(N)c(S(=O)(=O)NCc2ccccc2Cl)c(=O)n(C)c1=O
→ ., 11%[46.1 µM], 0%, ., 1%, ?, ., 7%
O=C(Cn1c(=O)[nH]c2ccccc2c1=O)Nc1ccc2c(c1)OCCO2
→ -17%, ., 3%, ., ?, ., ., -16%
CCN1CCN(CCCNC(=O)c2cc3cc4ccc(OC)cc4nc3o2)CC1
→ -8%, 0%, -10%, ?, -3%, ?, ?, -1%
CC1(C)N=C(c2ccccn2)C(C)(C)N1O
→ -1%, 4%, 2%, -6%, -3%, ?, -0.1%, .
Cc1c(C)n(-c2ccccc2)c2ncnc(NCCN(C)C)c12
→ 0%, ., -4%, ., 1%, ., ., -8%
CCCCC1C(=O)NC(=S)N(C)C1=O (centres undefined)
→ ., -8%, 2%, ., ., 3%, ., -14%
CC(=O)C1=C(C)NC(SCC(=O)c2ccc(Cl)cc2)=C(C#N)C1CC(C)C (centres undefined)
→ -49%, -8%, 28%, -4%, -14%, 1%, -6.7%, -14%
CC1CCCN(c2oc(-c3cccc4ccccc34)nc2C#N)C1 (centres undefined)
→ -1%, ?, -16%, ?, 14%, 15%, ?, 3%
O=C(Oc1ccccc1C(=O)N1CCOCC1)c1cccc(Br)c1
→ -12%, 10%, -1%, 3%, 15%, -2%[46.1 µM], 6.0%, -12%
CN(C)c1ccc(-c2noc(-c3ccccc3O)n2)cc1
→ 3%, 5.8µM*, 1%, 25µM*, 1%, ?, 22µM*, -23%
O=C(O)c1cc(=O)[nH]c2c(Cl)cccc12
→ 7%, ., 2%, ., 0%, ., ., -10%
O=C(N/N=C/c1c[nH]c2ccccc12)c1cc(Cl)ccc1O
→ -54%, ., -1%, ., -4%, ., ., 48%[activator]
Cc1onc(C(=O)N2CCN(C(c3ccccc3)c3ccccc3)CC2)c1[N+](=O)[O-]
→ 3%, -12%, -22%, -21%, -29%, 3%, -5.3%, ?
O=C(CCc1nc2ccccc2c(=O)[nH]1)NNC(=O)c1ccc(Cl)cc1
→ ., 21%, 4%, ., -3%, ?, ., -11%
CCOC(=O)C1=NNC2C(=O)N(Cc3ccccc3)C(=O)C12 (centres undefined)
→ -3%, -9%, -14%, ., 1%, ?, ., -2%
O=C1CSC(=S)N1N=Cc1ccc(Cl)cc1Cl
→ ., 14%, -7%, ., ., 6%, ., -16%
COc1ccc(Cl)cc1NC(=O)c1cc(C)no1
→ -5%, 5%[46.1 µM], 1%, ., -3%, 5%[46.1 µM], ., -1%
CCCC/C(O)=C1\C(=O)CCCC1=NCCc1c(C)[nH]c2ccc(OC)cc12
→ 5%, ?, 5%, ., -1%, 8.9µM*, ., -4%
COc1ccc(Cn2c(=O)[nH]c3cc(C(=O)N4CCN(c5cc(Cl)ccc5C)CC4)ccc3c2=O)cc1
→ ., -26%[46.1 µM], ., 5%, ., 22%[46.1 µM], 0.7%, 4%
CCOC(=O)C1CCCN(c2c(NCCC(C)C)c(=O)c2=O)C1 (centres undefined)
→ 5%, 20%, 15%, ., 0%, 8%, ., 2%
CCOc1ccc(CN(CCc2ccc3c(c2)OCO3)Cc2cc(OC)c(OC)cc2OC)cc1
→ ., -23%[46.1 µM], ., 3%, ., ., -2.7%, -5%
O=C(NCC1CCCCC1)c1cc([N+](=O)[O-])ccc1N1CCOCC1
→ ., 4%, 2%, ., 0%, 3%, ., -7%
CCOC(=O)CNC(=O)COc1coc(CN2CCN(Cc3ccccc3)CC2)cc1=O
→ 9%, ., -5%, ., 6%, ., ., -12%
Cc1ccc(S(=O)(=O)NCc2csc(C)n2)c(C)c1
→ -10%, -4%, -6%, -2%, 2%, 4%, 1.5%, 15%
COCCCNC(=O)c1c(NC(=O)C2COc3ccccc3O2)sc2c1CCCC2 (centres undefined)
→ -2%, -15%, 4%, -1%, ?, 14%, -12%, -19%
COc1ccccc1CNC(=O)C(NS(=O)(=O)c1ccc2c(c1)CCN2C(C)=O)C(C)C (centres undefined)
→ ., 4%[46.1 µM], ., 4%, ., 3%[46.1 µM], -3.0%, 1%
COc1ccc(-c2nc(N)ncc2-c2ccccc2OC)c(O)c1
→ 7%, ., 2%, ., -1%, ., ., ?
C[N+](C)(C)CCCN1C(=O)CCCC1=O
→ 15%, 0%, -3%, -3%, ?, 9%, 5.6%, 2%
CC(Sc1n[nH]c(=O)[nH]c1=O)C(=O)OCc1ccccc1 (centres undefined)
→ 5%, -5%, 23%, -4%, ., -11%, 3.0%, -3%
Cc1ccc([N+](=O)[O-])cc1Nc1nc(N2CCOCC2)nc(N2CCOCC2)n1
→ -3%, 21%[46.1 µM], 0%, ., 0%, ?, ., -21%
CC(C)(C)NC(=O)CN(CCN1CCOCC1)C(=O)CNS(=O)(=O)c1ccc(Cl)cc1
→ -6%, 16%[46.1 µM], 2%, ., -1%, ?, ., -20%
CCC(Cc1ccccc1)NC(=O)Cn1cccc1C(=O)c1ccccc1 (centres undefined)
→ -5%, ., 2%, ., -1%, ., ., -8%
O=C(NCc1ccccc1F)C1CCCN(C(=O)N2CCOc3ccccc32)C1 (centres undefined)
→ ., -4%[46.1 µM], ., -7%, ., ., 0.4%, 0%
COc1ccc(NC(=O)C2CCC(CNS(=O)(=O)c3cccs3)CC2)cc1OC (centres undefined)
→ ., -2%&7%[46.1 µM], 1%, 5%, -3%, ?, -2.7%, -23%&-16%
Cc1ccc(N=Nc2ccc(O)c(/C=N\NC(=O)c3ccc(N)cc3)c2)cc1C
→ -6%, -18%, -5%, -4%, 15%, -25%, 2.2%, 22%
Cc1ccc(C)c(S(=O)(=O)NCC(c2ccco2)N2CCc3ccccc3C2)c1 (centres undefined)
→ ., -5%, -18%, ., 0%, ?, ., 29%
NS(=O)(=O)c1ccc(CCNC(=O)c2ccco2)cc1
→ ., -3%, -10%, ., 0%, -16%[46.1 µM], ., -9%
CCCn1c(O)c(N=NC(=O)c2ccco2)c2ccccc21
→ -42%, ?, -12%, 0%, -12%, ?, -7.6%, -20%
Cc1ccc(C)c(C(=O)CSc2nc3cc(C(=O)NC4CCCC4)ccc3c(=O)n2CC2CCCO2)c1 (centres undefined)
→ ., ?, ., -20%, ., ., -2.0%, -27%
O[C@@H]1CN(Cc2ccccc2Cl)CC[C@H]1N1CCOCC1
→ 18%, ., -17%, ., 2%, ., ., -18%
CN(CC(=O)Nc1ccc(S(=O)(=O)N(C)C)cc1)Cc1ccc(C(F)(F)F)cc1
→ ., ?, -3%, ., 0%, ?, ., 0%
COc1ccc(-n2nnnc2-c2cccc(OC)c2)cc1
→ -2%, ?, -1%, -5%, 2%, ?, 5.0%, 4%
Cc1nnc(SC(C)C(=O)Nc2c(C)n(C)n(-c3ccccc3)c2=O)n1N (centres undefined)
→ -2%, 8%, 0%, ., 0%, ?, ., -5%
CCOC(=O)c1noc2nc(C)n(Cc3ccc([N+](=O)[O-])cc3)c(=O)c12
→ ., 28%[46.1 µM], ., 5%, ., ., 0.3%, 0%
COc1ccc(C)cc1NC(=O)CCNS(=O)(=O)c1ccc2c(c1)CCC(=O)N2
→ 3%, ., 0%, ., -4%, ., ., -13%
O=C(CSCc1ccccc1)N1CCN(C(=O)c2ccco2)CC1
→ 8%, -3%, 10%, 4%, 20%, 1%, -5.5%, .
COc1ccc2[nH]c(C(=O)Nc3ccccc3Cl)cc2c1
→ -6%, ., -14%, ., -1%, ., ., 65%[activator]
